Screening results deposited in PubChem BioAssay by ICCB-Longwood Screening Facility, Harvard Medical School.
HCMV UL50-53 inh: cytomegalovirus nuclear egress complex inhibition; HTRF UL50-UL53 interaction, normalized percent inhibition; inhibition, % (no concentration beside the values); AID 1918969; 190,000 compounds, 0.15% hits;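 active = both replicates at 50% or more, plus weaker picks with an unusually low signal ratio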;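 note: stock transfer was 100 nL into about 20 µL; 0% = negative control wells and 100% = wells with untagged competitor protein; inactives centre near -12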
GIV Gai3 FP: GIV-Galpha-i interaction inhibition. Galpha-i3/FITC-GIV peptide fluorescence polarization, 90 min; hits give low values; scaled: aluminum fluoride 0%, vehicle 100%. P08753. 210,000 compounds, 0.42% hits. AID 1224905. percent of control (FP), % (concentration not given with the values);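 active = replicate mean at 85% of control or lower, very high polarization wells dropped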;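 note: wells of about 15 µL received 100 nL stock; the first replicate is given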
Target sequence (P08753 whole entry, looked up): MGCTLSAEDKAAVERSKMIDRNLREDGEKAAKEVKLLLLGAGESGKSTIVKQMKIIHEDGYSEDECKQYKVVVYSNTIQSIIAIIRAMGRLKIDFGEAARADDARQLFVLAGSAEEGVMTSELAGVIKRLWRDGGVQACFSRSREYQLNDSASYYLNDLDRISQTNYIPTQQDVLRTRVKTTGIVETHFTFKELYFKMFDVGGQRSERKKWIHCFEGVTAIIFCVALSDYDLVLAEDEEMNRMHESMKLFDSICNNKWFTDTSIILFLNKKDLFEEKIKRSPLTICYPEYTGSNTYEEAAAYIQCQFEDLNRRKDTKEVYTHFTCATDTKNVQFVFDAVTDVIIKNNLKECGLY
Sa growth 42C: S. aureus growth inhibition; relative growth, % (concentration not given with the values); 170,000 compounds, 0.53% hits; AID 720641; S. aureus RN4220 growth, OD600, 20 h, 42 °C; hits give low values;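 active = growth at 42 °C up to 50% and 20 or more points under that at 30 °C, or under 10% at both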;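 note: 300 nL library stock went into each well; scaled to the means of positive and negative controls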
Sa growth 42C second temp: also measured in Sa growth 42C; calls as there; relative growth, %; measured here: growth at 30 °C;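 optical density after 20 h as mean of two plates; 100% = untreated growth and lower means inhibition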
* marks the source's active call; other numbers are inactive results; / = no result given; & = joins results of further samples.

Molecule	HCMV UL50-53 inh	Sa growth 42C	Sa growth 42C second temp	GIV Gai3 FP
O=C(O)CN(CCN(CC(=O)O)CC(=O)O)CCN(CC(=O)O)CC(=O)O	-16&36&40	90	88	109
COc1ccc(-c2noc(-c3ccccc3OCC(=O)Nc3nccs3)n2)cc1	-27	/	/	99
CCN(CC)S(=O)(=O)c1ccc(Nc2nc3ccc(Cl)cc3n3cnnc23)cc1	-5	111	90	100
O=C(NC1CCCCCC1)c1cccc2c1C(=O)N(C1CCCCC1)C2	/	102	83	98
CC(C)OC(=O)c1ccc(COC(=O)CCc2nc3ccccc3[nH]c2=O)cc1	-19	93	79	101
O=C(COc1ccc(-c2nc(-c3ccccc3)no2)cc1)Nc1nccs1	-12	/	/	111
CCOC(=O)c1cccc(NC(=O)c2ccc3c(c2)C(=O)N(Cc2ccco2)C3=O)c1	-9	104	99	106
CCS(=O)(=O)N1CC(=O)N(c2cccc(Cl)c2C)C(C)(C(=O)NC2CCCCC2)C1 (configuration not stated)	/	109	88	109
CCN(CC)CCNc1ccc2nnc(CCNC(=O)c3ccc(C)cc3)n2n1	1	83	91	100&108
CN(C)CCCNc1nn2c(=O)c3ccccc3nc2c2ccccc12	-38	77	87	/
O=C(Nc1ccccc1N1CCOCC1)c1cccc(N2C(=O)c3ccccc3C2=O)c1	-40	97	89	/
O=C(COc1ccc(F)cc1)Nc1nnc(S(=O)(=O)N2CCc3ccccc32)s1	-4	86	62	106
CC(=O)Nc1cccc(Nc2nc3ccccc3n3c(C)nnc23)c1	-6	112	62	106
O=C(O)CSCCc1ccccn1	-24	106	101	103
CCCCCCc1cc2cc(-c3nnc(-c4ccc(C)cc4)o3)c(=O)oc2cc1O	3	101	109	7.6*

The list continues:
Molecule	HCMV UL50-53 inh	Sa growth 42C	Sa growth 42C second temp	GIV Gai3 FP
CC1CCc2sc(C(=O)NN)cc2C1 (configuration not stated)	-1	112	93	/
CC(C)OC(=O)Nc1cnccc1C(F)(F)F	0	112	92	107
COc1ccc(S(=O)(=O)c2cnc(SCC(=O)Nc3cc(F)ccc3C)[nH]c2=O)cc1Cl	14	93	83	108
CCn1cc(NC(=O)NC2CCc3ccccc32)c(=O)c2ccc(C)nc21 (configuration not stated)	-13	87	84	103
CC(=O)Nc1ccc(N=Nc2ccc(O)cc2)cc1	-103	80	34	/
CC(c1cccnc1)N(C(=O)Nc1ccccc1)C1CCCCC1 (configuration not stated)	/	97	79	104
c1ccc(-c2nnc3sc(-c4cc5ccccc5o4)nn23)nc1	-52	/	/	106
CC(=NCCN1CCNCC1)C1=C(O)CC(C)(C)CC1=O	-17	110	96	105
CCN(CC)c1nc(Nc2ccc(Cl)cc2)nc(OCC#N)n1	8	97	99	112
COc1c(Cl)ccc(Cl)c1C(=O)NC(=S)N1CCOCC1	1	63	75	102
CCN(CC)CCNC(=O)c1cc2c(=O)[nH]c3ccc(C)cc3c2s1	-36	98	106	113
Cc1ccccc1Cn1c(C)c(C2CCN(S(=O)(=O)c3cnn(C(F)F)c3C)CC2)c2ccccc21	-26	/	/	110
CCOC(=O)c1sc(NC(=O)c2snnc2C)c(C(=O)OCC)c1C	-16	/	/	95
CC(=O)OCc1cn2ccccc2n1	-2	99	96	/
CN(Cc1ccccc1)C(=O)CNS(=O)(=O)c1cccs1	5	86	98	111

The results go on:
Molecule	HCMV UL50-53 inh	Sa growth 42C	Sa growth 42C second temp	GIV Gai3 FP
Cc1c(C(=O)NCc2ccc(N(C)C)cc2)oc2c1-c1nn(Cc3cccc(Cl)c3)cc1CC2	-8	119	99	98
Cc1ccc(Cl)cc1-n1ncc2c(N3CCC(C(N)=O)CC3)ncnc21	/	85	85	101
Cc1cccc(-c2cc(C(=O)N3CCN(C(=O)c4ccco4)CC3)c3ccc(Cl)c(C)c3n2)c1	-4	123	94	105
Cc1nnc2c(N3CCCC3)nc3ccccc3n12	/	120	92	104
Cc1nc(Nc2ccc(F)cc2)c2c(C)c(C)n(-c3ccc(F)cc3)c2n1	-19	/	/	99
Cc1ccc(Nc2cc(C)nn2-c2ccccc2)cc1	10	84	97	/
CCC(Sc1nncn2c1cc1oc(C)cc12)C(=O)Nc1ccc(F)cc1 (configuration not stated)	/	118	82	106
CCC(=O)c1ccc(NC(C)=O)cc1O	-16	84	81	98
C=CCN1C(=O)c2[nH]nc(-c3ccccc3O)c2C1c1ccc(O)cc1 (configuration not stated)	-6	90	73	103
CC(=O)n1nc(-c2cccnc2)nc1NCc1ccc(F)cc1	-34	104	86	105
COc1ccc(C(=O)n2ccc(-c3cccs3)n2)cc1OC	-13	102	95	105
CCCn1c(SCc2c(C(=O)OCC)oc3ccccc23)nnc1-c1ccncc1	-33	84	87	/
COc1cc(NC(=O)CN2CCN(CC(=O)Nc3ccc(F)cc3)CC2)cc(OC)c1	/	96	86	104
COc1cc(CSc2nnnn2-c2ccc(C)cc2C)cc(OC)c1OC	-14	127	100	99
C=CCSc1nnc(-c2cccnc2)n1Cc1ccccc1	-4	107	93	103

(cont.)
Molecule	HCMV UL50-53 inh	Sa growth 42C	Sa growth 42C second temp	GIV Gai3 FP
Cc1ccc(-c2nnc(SCC(=O)NCc3ccccc3)nc2-c2ccc(C)cc2)cc1	/	103	90	107
CCN(CC)c1ccc(/C=C/C#N)cc1	-70	86	72	/
CC/C(=N\N=c1/sc2ccccc2n1C)c1ccc(OC)c(OC)c1	-12	75	96	/
CCOC(=O)c1cc2c3c(c1)C1C=CCC1C(c1cccc([N+](=O)[O-])c1)N3CC1CC=CC21 (configuration not stated)	-21	/	/	105
NC(=O)c1ccc2ccccc2c1	-17	89	107	/
N#CCCn1cc(C=C(C#N)C#N)c(-c2ccccc2)n1	-21	77	90	/
CC(c1ccccc1)n1cnc2c3cc(F)ccc3n(Cc3ccccc3Cl)c2c1=O (configuration not stated)	-16	/	/	100
CC1CN(CC(=O)Nc2c(Cl)cccc2Cl)CC(C)O1 (configuration not stated)	11	91	95	/
CCOC(=O)c1cc(-c2ccccc2)n(CC(=O)Nc2ccccc2OCC)c1C	/	123	86	106
O=C(Cn1nnc2ccccc21)Nc1cc(C(F)(F)F)ccc1Cl	-16	98	90	100
O=C(O)C1(c2ccccc2)CC1	-24	97	94	/
COc1ccc(CC(=O)NCC(c2ccc(N(C)C)cc2)N(C)C)cc1OC (configuration not stated)	-22	/	/	100
O=C(NCc1ccc2c(c1)CCN2C(=O)c1ccccc1)c1ccco1	/	86	85	99
Cc1ccc(-c2nc(CN3CCN(C(=O)c4ccc(Br)cc4)CC3)c(C)o2)cc1	-22	/	/	101
NC(=O)c1cc(C(=O)Cc2ccccc2)c[nH]1	-12	/	/	97

Structural class: the compounds so far with two or more sulfur atoms (4)
Molecule	HCMV UL50-53 inh	Sa growth 42C	Sa growth 42C second temp	GIV Gai3 FP
O=C(COc1ccc(F)cc1)Nc1nnc(S(=O)(=O)N2CCc3ccccc32)s1	-4	86	62	106
COc1ccc(S(=O)(=O)c2cnc(SCC(=O)Nc3cc(F)ccc3C)[nH]c2=O)cc1Cl	14	93	83	108
CCOC(=O)c1sc(NC(=O)c2snnc2C)c(C(=O)OCC)c1C	-16	/	/	95
CN(Cc1ccccc1)C(=O)CNS(=O)(=O)c1cccs1	5	86	98	111

(listing goes on)
Molecule	HCMV UL50-53 inh	Sa growth 42C	Sa growth 42C second temp	GIV Gai3 FP
CCCCc1c(C#N)c(N)nc2sc(C(=O)c3ccc([N+](=O)[O-])cc3)c(N)c12	-13	/	/	104
Nc1ccccc1Sc1c(Cl)cncc1Cl	-48	100	82	101
Cn1c(=O)c2c(nc(Oc3ccc4c(c3)OCO4)n2Cc2ccc(F)cc2)n(C)c1=O	-3	82	88	103
O=C1NC2(CCCC2)N=C1c1ccccc1	/	104	92	100
O=C(Nc1ccc(I)cc1C(=O)NCCN1CCOCC1)c1ccco1	-6	108	89	101
COc1ccc(NC(=O)c2cccc(Nc3ccc(-c4cccc(C)c4)nn3)c2)cc1OC	-24	/	/	103
Cc1c(NC(=O)c2cc(-c3ccc(F)cc3)on2)c(=O)n(-c2ccccc2)n1C	-16	100	88	109
O=C(C1CCCO1)N1CCNCC1 (configuration not stated)	-11	83	97	/
CN(CCc1ccccn1)Cc1ccccn1	/	88	92	99
Cc1ccc(Cn2c(=O)n(-c3ccc(C)c(C)c3)c(=O)c3c(C)c(C)sc32)cc1	12	93	99	110
Cc1nn(CCCC(=O)NCCC2=CCCCC2)c(=O)c2cc3sccc3n12	3	112	87	109
COc1ccc(/C=N/c2n[nH]c(N)n2)cc1	-13	91	85	113
O=C(O)c1cnc(N2CCC(N3CCCCC3)CC2)c(NS(=O)(=O)c2ccc(F)cc2)c1	-34	/	/	99
CCOC(=O)c1c(C=O)oc2c(C)cc(OC(=O)c3ccccc3[N+](=O)[O-])c(Br)c12	-6	/	/	100
S=C1NCN(CCc2ccccn2)CN1	-32	88	86	102

Continued.
Molecule	HCMV UL50-53 inh	Sa growth 42C	Sa growth 42C second temp	GIV Gai3 FP
O=S(=O)(c1ccc2c(c1)CCO2)N1CCCN(c2c(Cl)cncc2Cl)CC1	-14	106	89	103
Cn1c(=O)n(C/C=C/c2ccccc2)c(=O)c2c1nc1n2CCN1c1ccc(Cl)cc1	/	109	98	104
COc1ccc(NC2=Nc3ccccc3CC2)cc1	/	88	90	105
C=CCSc1nc(Nc2ccc(Cl)cc2)c2cnc(N3CCOCC3)nc2n1	-18	96	92	104
O=c1nc(SCc2ccc(Cl)cc2)c2c(n1C1CCCC1)CCC2	-12	/	/	103
CCCCC1NC(C(=O)O)CS1 (configuration not stated)	5	100	91	100
Clc1ccccc1CNC12CN3CN(CN(C3)C1)C2	-6	103	78	99
CC1=C(C#N)C(c2cccnc2)C2=C(CC(c3ccc(Cl)cc3)CC2=O)N1 (configuration not stated)	-61	77	55	106
CCOC(=O)N1CCN(C(=O)c2sc3nc(-c4ccc(F)cc4)cn3c2C)CC1	7	100	77	111
Cc1ccc(NC(=O)Nc2ccccc2OCc2cc(=O)n3c(ncn3C(C)C)n2)cc1Cl	4	/	/	98
CCCc1nc2c(o1)NC(N)=C(C#N)C2c1ccc(OC(C)C)c(OC)c1 (configuration not stated)	-28	103	67	/
Cc1csc(SCC(=O)NN2C(=O)NC3(CCCCC3)C2=O)n1	1	96	98	/
O=C(c1ccco1)N(O)c1ccccc1	-11	76	39	97
COc1ccc(C(=O)ON=C2CCN(C)CC2)cc1	14	100	91	113
CCNC(=S)Nc1ccc(NC(=S)NCC)cc1	-6	93	89	99

(list continues)
Molecule	HCMV UL50-53 inh	Sa growth 42C	Sa growth 42C second temp	GIV Gai3 FP
O=C(CCc1nc2cccnc2n1Cc1cccs1)Nc1cccc(Br)c1	-24	104	75	124
C=CCc1cc(C(=O)N2CCCCC2)ccc1O	/	130	83	103
CC(NC(=O)c1ccc(CN2C(=O)CSc3ncccc32)cc1)c1ccc2c(c1)OCCO2 (configuration not stated)	-2	/	/	106
Cc1cccc(CC(=O)Nc2ccc3nc(N4CCC(C)CC4)cc(C)c3c2)c1	-17	113	91	99
COc1ccc(Nc2nc(C)c(NC(=O)C3CC3)c(Nc3ccc(OC)cc3)n2)cc1	7	/	/	97
CCC(CO)NC(=S)Nc1cc(C(F)(F)F)cc(C(F)(F)F)c1 (configuration not stated)	-28	32	34	106
C=CCOc1nc(F)c(Cl)c2c1Oc1cc(Br)c(Br)cc1O2	/	93	80	103
CC(C)N(Cc1ccccc1)C(=S)NCCN1CCOCC1	-15	72	90	/
COc1ccc(C2C3=C(CCCC3=O)OC3=C2C(=O)CCC3)cc1OC	-15	/	/	98
COCCCNC(=O)C1CCCN(S(=O)(=O)c2ccc3c(c2)oc(=O)n3C)C1 (configuration not stated)	-44	95	93	105
COc1ccc(-c2nc(CSc3nc(C)c(C)n3C3CCCC3)cs2)cc1OC	-33	51	44	/
CCCN(CC1CC1)C(=O)c1cc(=O)c2ccccc2o1	-35	123	76	/
CC1CC(C)(C)CC2(C1)NC(=O)N(Cc1cccc(S(=O)(=O)N(C)C)c1)C2=O (configuration not stated)	9	100	100	/
Cc1cc(-c2ccc(/C=C3\SC(=S)N(CC(=O)O)C3=O)o2)ccc1[N+](=O)[O-]	-66	/	/	114
Cc1cc(=O)n(CCO)c(=O)[nH]1	0	88	88	101

More records follow:
Molecule	HCMV UL50-53 inh	Sa growth 42C	Sa growth 42C second temp	GIV Gai3 FP
CCc1ccc(NC(=O)CSc2ccc(-c3ccccn3)nn2)cc1	/	84	78	109
CCCNS(=O)(=O)c1c[nH]c(-c2nnc(CC)o2)c1	-31	/	/	104
Clc1ccc(-c2csc(-c3nc(-c4ccc(Br)s4)cs3)n2)cc1	5	87	85	101
CC(=O)Nc1cccc(C(=O)N(C)c2ccccc2)c1	4	99	106	105
CC(C)C(=O)OCC(=O)Nc1ccc(C#N)cc1	-10	97	95	/
COc1ccc(C)cc1NS(=O)(=O)c1cc2c3c(c1)CC(=O)N3CCC2	/	126	83	96
CN(C)c1cccc(C(=O)OCC(=O)c2cc3ccccc3o2)c1	-23	89	85	/
O=C(NC1CCCC1)N1CCC(N2CCN(Cc3ccc(F)cc3)C(=O)C2=O)CC1	-21	/	/	106
Cc1cc(C)nc(NC(=O)/C=C/c2ccccc2Cl)n1	-30	107	102	101
Cn1c(=O)n(C)c2cc(Sc3ccc(F)cc3)c(NS(=O)(=O)c3ccc4c(c3)CCC4)cc21	-23	/	/	102
